# KCNQ2 block: KCNQ2 channel blockers in CHO-K1 cells – cell-based, FluxOR thallium flux, B-score, primary screen (AID 2156); O88943; 310,000 tested, 1.1% active; 20 min; active compounds read low; only compounds with negative scores are shown here; some inactives read as strong as hits; B-score at 10 µM;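 active = fluorescence ratio B-score at most minus 3 library SDs, with starting brightness B-score within 2 library SDs, cut at about -5.5 in these data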
# Target sequence (O88943 whole entry, looked up): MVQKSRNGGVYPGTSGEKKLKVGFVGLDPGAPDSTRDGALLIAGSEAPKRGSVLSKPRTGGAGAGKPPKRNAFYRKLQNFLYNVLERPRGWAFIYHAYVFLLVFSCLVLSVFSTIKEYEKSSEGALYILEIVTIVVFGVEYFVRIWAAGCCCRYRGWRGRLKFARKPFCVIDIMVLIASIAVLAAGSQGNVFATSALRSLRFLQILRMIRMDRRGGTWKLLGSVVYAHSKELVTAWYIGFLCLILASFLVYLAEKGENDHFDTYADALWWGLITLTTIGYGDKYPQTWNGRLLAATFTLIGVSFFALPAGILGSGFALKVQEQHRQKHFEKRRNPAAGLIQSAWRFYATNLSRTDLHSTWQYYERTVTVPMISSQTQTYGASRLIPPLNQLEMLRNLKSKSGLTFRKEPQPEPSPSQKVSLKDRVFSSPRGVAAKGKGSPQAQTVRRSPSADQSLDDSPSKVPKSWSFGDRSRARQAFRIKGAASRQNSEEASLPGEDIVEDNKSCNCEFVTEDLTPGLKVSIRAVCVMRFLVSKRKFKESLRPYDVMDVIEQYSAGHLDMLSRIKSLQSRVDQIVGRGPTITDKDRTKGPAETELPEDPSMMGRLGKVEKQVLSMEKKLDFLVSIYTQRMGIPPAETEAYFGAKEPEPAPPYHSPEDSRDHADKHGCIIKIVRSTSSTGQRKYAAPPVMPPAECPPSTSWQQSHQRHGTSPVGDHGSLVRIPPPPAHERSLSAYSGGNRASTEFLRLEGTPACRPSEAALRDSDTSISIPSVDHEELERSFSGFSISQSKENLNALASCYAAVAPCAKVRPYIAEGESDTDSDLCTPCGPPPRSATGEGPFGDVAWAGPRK
# KCNQ2 block baseline: further read-out of KCNQ2 block, marked with its call; B-score; measured here: initial fluorescence intensity artifact check;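 brightness before thallium and not channel activity; 0 = typical well and far values either way flag optical interference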
# Numbers without * were called inactive; i = inactive.
KCNQ2 block	KCNQ2 block baseline	SMILES
i	0.9	COc1ccc(-n2nc(C(=O)O)nc2-c2ccccc2)cc1
i	0.03	COc1ccc(OCCSc2nnnn2C2CCCCC2)cc1
i	-2.1	Cc1cc(C)n2c(SCC(=O)N(CC(C)C)c3c(N)n(CC(C)C)c(=O)[nH]c3=O)nnc2n1
i	1.4	CCOC(=O)Cc1cnc(NC(=O)CSc2nc(N)cc(=O)[nH]2)s1
i	1	COc1ccc(NC(=O)CSc2nc(N)c3cc4c(nc3n2)CCCC4)cc1
i	-1.8	O=C(COc1ccccc1)N1CCN(S(=O)(=O)Cc2ccccc2)CC1
i	1.4	CC1(c2ccncc2)Nc2ccccc2-c2nc3ccccc3n21 (stereo not given)
i	-0.6	Cc1ccc(CN2C(=O)c3ccccc3C2C(=O)NCc2cccnc2)cc1 (stereo not given)
i	-0.45	COc1ccc(C2=NOC(CN3C(=O)c4ccccc4S3(=O)=O)C2)cc1 (stereo not given)
i	-0.24	CCOC(=O)C1CCN(C(=O)c2c(-c3c(F)cccc3Cl)noc2C)CC1
i	-0.43	Cc1c(CCO)c(=O)[nH]n1S(=O)(=O)c1ccc(F)cc1
i	-0.77	Cc1cccc(NC(=O)c2cc([N+](=O)[O-])ccc2N2CCCCC2)n1
i	-0.02	Cc1cc(C(=O)NCc2cccs2)nn1C
i	0.21	COC(=O)c1ccccc1NC(=O)c1ccc(COc2ccc3c(c2)CCC3)cc1
i	0.03	Cc1cc2[nH]ncc2cc1NC(=S)NC(=O)c1ccccc1
i	-0.41	COc1ccccc1NS(=O)(=O)c1cc(NC(=S)NCC2CCCO2)ccc1C (stereo not given)
i	1.7	CCOc1ccccc1CN1CCNC(=O)C1CC(=O)NC1CCCCC1 (stereo not given)
i	0.58	COc1ccc(S(=O)(=O)N(CC(=O)NCc2ccco2)c2ccc(C)cc2)cc1OC
i	-0.96	CC(O)c1nc2ccccc2n1CC(=O)Nc1ccc2c(c1)OCCO2 (stereo not given)
i	1.3	Cc1cc(N2CCN(c3ccccc3)CC2)nc(-c2ccccc2O)n1
i	1.4	CCn1c(=NC(=O)CSC(C)=O)sc2cc(OC)ccc21
i	0.91	CN(C)c1ccc(N2C(=NC(=O)CCC3CCCC3)SC3CS(=O)(=O)CC32)cc1 (stereo not given)
-6.1*	0.92*	COc1cc([N+](=O)[O-])ccc1NC(=O)NCC1CCN(Cc2ccc(Cl)cc2)CC1
i	0.39	C=C(C)CSc1nnc([C@H](CCSC)NC(=O)OC(C)(C)C)o1
i	-1.7	COc1cc(NS(=O)(=O)c2ccc(Nc3nc(-c4ccccn4)cs3)cc2)nc(OC)n1
i	1.4	OC12CCCCC1C(c1ccc3c(c1)OCO3)N(Cc1ccccc1F)CC2 (stereo not given)
i	0.67	Cc1cc(NS(=O)(=O)c2ccc(NC(=O)CCCOc3cccc(C)c3C)cc2)no1
i	0.3	O=C(O)CN1CCN(Cc2ccc(Cl)cc2)C1=O
i	-0.02	O=C(NC(=S)Nc1ccccc1N1CCCC1)c1ccccc1[N+](=O)[O-]
i	-0.98	CC(C)CCn1c(SCC(=O)NC2CCS(=O)(=O)C2)nc2cc(Cl)ccc2c1=O (stereo not given)
i	0.01	O=C(CSc1nccn(-c2ccc(Br)cc2)c1=O)NC1CCCC1
i	1	COc1ccc(C2C(=O)c3ccccc3C2=O)cc1
i	-0.81	COc1cc(NC(=S)N2CCN(S(=O)(=O)c3ccccc3)CC2)cc(OC)c1
i	0.87	NNC(=O)C12CC3CC(C1)CC(n1ncnn1)(C3)C2
i	0.15	COc1ccccc1N(O)C1CC(=O)N(c2ccc(F)cc2)C1=O (stereo not given)
i	0.52	CC(=O)c1ccc(N2CCN(C(=O)C3CCCN(c4ncnc5c4nc4n5CCCCC4)C3)CC2)cc1 (stereo not given)
i	-0.04	Cc1cc(NCCc2ccccc2F)n2ncnc2n1
i	0.72	CC(C)c1onc(C(=O)Nc2ccc3c(c2)OCO3)c1[N+](=O)[O-]
-8.8*	-0.03*	COc1cc2c(cc1OC)C(c1ccc(-c3ccc(Cl)c(Cl)c3)o1)=NCC2
-6.5*	2.2*	COC(=O)c1nn(C23CC4CC(CC(C4)C2)C3)c2c1C(=O)N(c1ccc(Br)cc1)C2=O
i	3.7	Cc1cccc(/C=C/c2onc(C)c2S(=O)(=O)N2CCC(C(=O)N3CCCCC3)CC2)c1
i	0.27	O=S(=O)(Nc1cccc(-c2nc3cccnc3s2)c1)c1ccc2c(c1)CCCC2
i	0.19	COc1ccccc1S(=O)(=O)Cc1ccc(C(=O)NC2CCCCCC2)o1
i	-0.66	CCOc1ccc(Cl)cc1S(=O)(=O)n1cnc2cc(C)c(C)cc21
i	0.88	O=S(=O)(CC(CN1CCCCC1)N1CCCCC1)c1ccc2ccccc2c1 (stereo not given)
i	0.79	COCCNc1cnn(-c2ccccc2)c(=O)c1Cl
i	-0.42	O=C(CSc1nc2ccccc2c(=O)n1-c1ccccc1)N/N=C/C=C/c1ccccc1[N+](=O)[O-]
i	0.69	CN1C(=O)/C(=C2\SC(=S)N(C(CCC(=O)O)C(=O)O)C2=O)c2ccccc21 (stereo not given)
i	0.77	Cc1ccc(NC(=O)C2CCCN(S(=O)(=O)c3ccc4[nH]c(=O)ccc4c3)C2)c(C)c1 (stereo not given)
i	0.2	COc1ccc(Cn2nnnc2C(c2cc3cccc(C)c3[nH]c2=O)N2CCN(C)CC2)cc1 (stereo not given)
i	1.8	O=C(OCc1nnc(-c2ccccc2)o1)c1cc2ccccc2cc1O
i	-0.26	CC1=NN(C(N)=S)C(=O)C1N=Nc1ccc(F)cc1 (stereo not given)
i	0.47	CCCc1cnc(N2CCN(C(=O)c3c(-c4ccccc4)noc3C)CC2)nc1
i	0.26	CCC1CC(CSC(=N)N)OC1=O (stereo not given)
i	-0.92	O=c1[nH]c2ccc(S(=O)(=O)N3CCC(Cc4ccccc4)CC3)cc2o1
i	1.5	O=C(N/N=C/c1ccccc1)C1CCCN1C(=O)c1cc([N+](=O)[O-])cc([N+](=O)[O-])c1 (stereo not given)
i	1.7	CC(=O)Nc1ccc(-c2nc(C)c(C(C)=O)n2O)cc1
i	0.22	COC(=O)CCSc1cc(NCCOC(C)=O)c([N+](=O)[O-])c2nonc12
i	-1.8	COc1ccccc1NC(=O)COc1ccc(Br)cc1CNC1CCCC1
i	0.3	C=CCN1C(=O)C(Cc2ccccc2)S/C1=N/N=C/c1cccs1 (stereo not given)

# Next section; the last 2 above are carried over.
KCNQ2 block	KCNQ2 block baseline	SMILES
i	-1.8	COc1ccccc1NC(=O)COc1ccc(Br)cc1CNC1CCCC1
i	0.3	C=CCN1C(=O)C(Cc2ccccc2)S/C1=N/N=C/c1cccs1 (stereo not given)
i	1.1	CC(C)=CCC(C)(C)C1OCCN1C(=O)c1ccccc1 (stereo not given)
i	-0.08	CCC(CC)NC(=O)CO/N=C/c1ccccc1OC(F)F
i	-1.4	CC(C)NC1=C(Cl)C(=O)c2ccccc2C1=O
i	-2.2	CCOC(=O)c1c(CN2CCOCC2)n(-c2ccccc2)c2cc(Br)c(O)c(CN(C)C)c12
i	1.4	CN(C)NC(=S)Nc1ccc2nc(-c3ccccn3)c(-c3ccccn3)nc2c1
i	0.07	Cc1ccc(-c2n[nH]c3c2CCC3)cc1
i	-0.27	COc1ccc(CCNC(=O)c2ccc3nc(N4CCCCC4)sc3c2)cc1OC
i	0.23	CCCNC(=O)C1=C(C)C(=O)OC12CCC(C)CC2 (stereo not given)
i	-0.36	COc1ccc(Cc2nnc(SCC(=O)N3CCc4ccccc4C3)o2)cc1
i	2.8	CN(C)S(=O)(=O)c1cccc(NC(=O)c2cc3c(cc2Cl)N2CCCCCC2=NS3(=O)=O)c1
i	0.22	O=C(Nc1nccs1)c1ccc([N+](=O)[O-])cc1Cl
i	-0.17	CCOc1ccc(N(C)S(=O)(=O)c2cc(-c3cc(C)no3)ccc2C)cc1
i	0.58	O=C(COc1ccc(F)c(Cl)c1)c1ccc[nH]1
i	-0.28	Cn1c(=O)c2cc(S(=O)(=O)NCCC(=O)Nc3ccc(F)cc3F)ccc2n(C)c1=O
i	-0.12	CCOC(=O)CN(C(=O)CSc1nnc(COc2ccc(OC)cc2)n1CC)c1ccccc1

# An excerpt of these results, as tab-separated lines:
structure	KCNQ2 block	KCNQ2 block baseline
COC(=O)CCSc1cc(NCCOC(C)=O)c([N+](=O)[O-])c2nonc12	i	0.22
COc1ccccc1NC(=O)COc1ccc(Br)cc1CNC1CCCC1	i	-1.8
C=CCN1C(=O)C(Cc2ccccc2)S/C1=N/N=C/c1cccs1 (stereo not given)	i	0.3
CC(C)=CCC(C)(C)C1OCCN1C(=O)c1ccccc1 (stereo not given)	i	1.1
CCC(CC)NC(=O)CO/N=C/c1ccccc1OC(F)F	i	-0.08
CC(C)NC1=C(Cl)C(=O)c2ccccc2C1=O	i	-1.4
CCOC(=O)c1c(CN2CCOCC2)n(-c2ccccc2)c2cc(Br)c(O)c(CN(C)C)c12	i	-2.2
CN(C)NC(=S)Nc1ccc2nc(-c3ccccn3)c(-c3ccccn3)nc2c1	i	1.4
Cc1ccc(-c2n[nH]c3c2CCC3)cc1	i	0.07
COc1ccc(CCNC(=O)c2ccc3nc(N4CCCCC4)sc3c2)cc1OC	i	-0.27
CCCNC(=O)C1=C(C)C(=O)OC12CCC(C)CC2 (stereo not given)	i	0.23
COc1ccc(Cc2nnc(SCC(=O)N3CCc4ccccc4C3)o2)cc1	i	-0.36
CN(C)S(=O)(=O)c1cccc(NC(=O)c2cc3c(cc2Cl)N2CCCCCC2=NS3(=O)=O)c1	i	2.8
O=C(Nc1nccs1)c1ccc([N+](=O)[O-])cc1Cl	i	0.22
CCOc1ccc(N(C)S(=O)(=O)c2cc(-c3cc(C)no3)ccc2C)cc1	i	-0.17
O=C(COc1ccc(F)c(Cl)c1)c1ccc[nH]1	i	0.58
Cn1c(=O)c2cc(S(=O)(=O)NCCC(=O)Nc3ccc(F)cc3F)ccc2n(C)c1=O	i	-0.28
CCOC(=O)CN(C(=O)CSc1nnc(COc2ccc(OC)cc2)n1CC)c1ccccc1	i	-0.12

# (cont.)
KCNQ2 block	KCNQ2 block baseline	SMILES
i	-0.49	c1cncc(CNCc2ccco2)c1
i	-0.05	O=C(OCC(=O)N1CCN(c2ccccc2)CC1)c1ncc(Cl)c(Cl)c1Cl
i	-0.07	O=C(Nc1cccc(S(=O)(=O)Nc2ccccc2Cl)c1)c1ccc(Cl)nc1
i	-0.89	O=c1c2ccccc2nc2n1C1(CCCCC1)Cc1ccccc1-2
i	-2.7	O=C(O)c1ccc(Cl)c(S(=O)(=O)N(Cc2ccccc2)c2ccc(Cl)cc2)c1
i	1.2	CCCC(CCC)C(=O)Nc1c[nH]c(=O)[nH]c1=O
i	3	[O-]C1=N/[N+](=C/c2ccccc2Cl)CC1
i	0.34	O=C(CN1CCN(c2ccccc2F)CC1)c1c[nH]c2ccc(F)cc12
i	3.1	O=C(CSc1nnc(-c2ccco2)o1)c1ccc(F)c(F)c1
i	1.6	Cc1ccc(S(=O)(=O)N(C)C)cc1NC(=O)CSc1nc2ccccc2c(=O)n1CC1CCCO1 (stereo not given)
i	-1.6	Cc1ccsc1C(=O)c1sccc1C
i	-0.01	COc1ccc(C2CC(c3cccs3)=NN2c2nc(-c3ccccc3)cs2)cc1OC (stereo not given)
i	-1.9	CC(=O)NNc1nc(-c2ccccc2)c2cc(Br)ccc2n1
i	-0.05	N#Cc1cc2cc3c(cc2nc1SCC(=O)OC1CCCCC1)OCO3
i	-0.25	CC(C)CCNC(=O)CN(Cc1ccccc1)C(=O)CCC(=O)Nc1ccccn1
i	2.3	CN(C(=O)COc1cc(C(F)(F)F)nn1C)c1ccccc1
i	0.88	O=C(Nc1ccc(F)cc1)c1cccc(NC(=O)C2C3CC4OC(=O)C2C4C3)c1 (stereo not given)
i	0.34	COc1cc2c(cc1OC)CN(c1ccc([N+](=O)[O-])cc1C#N)CC2
i	0.38	CC(/C=N/Nc1nnc(C)c(=O)[nH]1)=C\c1ccccc1
i	0.34	COC(=O)c1cc(C)[nH]c2c(C)cc3nc4ccccc4c3c12
i	-1.4	CCc1oc2ccccc2c1C(=O)CCN1CCCCC1
i	-1.1	N#C/C(=C/c1ccc(-c2ccccc2[N+](=O)[O-])o1)C(N)=O
i	0.28	COc1ccc(N2CCN(C(=O)CN(C)S(=O)(=O)c3cc(C)ccc3OC)CC2)cc1
i	-1.4	CCN(Cc1ccccc1)C(=O)Cc1ccc(OC)c(S(=O)(=O)N2CCOCC2)c1
i	0.97	N#C/C(=C(/O)c1ccc(Cl)c([N+](=O)[O-])c1)c1nc2ccccc2[nH]1
i	-0.51	O=c1[nH]c2cc([N+](=O)[O-])c([N+](=O)[O-])cc2[nH]c1=O
i	0.12	O=C(NCc1ccccc1)c1cnsn1
i	0.48	O=C(COC(=O)C1CCN(/C=C/C(=O)C(F)(F)F)CC1)Nc1ccccc1
i	-1.1	Cc1ccc(C2CC(c3cccs3)=NN2C(=O)CSc2nc(=O)n3cc(C)ccc3n2)cc1 (stereo not given)
i	0.01	Oc1ccc2ccccc2c1C=Nc1ccc(N2CCOCC2)cc1
i	-0.01	CCN1C(=O)C2(C(C(=O)c3cc4ccccc4o3)=C(O)C(=O)N2CCCN2CCOCC2)c2ccccc21 (stereo not given)
i	-0.45	Cc1cc(N)nc(C)c1C#N
i	-0.24	CN1CCN(c2nc3c(c(=O)n(C)c(=O)n3C)n2Cc2ccccc2)CC1
i	-0.13	CC(=O)c1cccc(S(=O)(=O)N(C)C2CCN(C)CC2)c1
i	2.4	COc1cc(NC(=S)NC2CC(C)(C)NC(C)(C)C2)c(OC)cc1Cl
i	-1	Cc1cc(C)n(C(=O)C(C)N2C(=O)c3ccccc3C2=O)n1 (stereo not given)
i	-0.15	Cc1ccccc1N1C(=O)CC1(C#N)c1ccc(OCc2ccccc2)cc1 (stereo not given)
-5.8*	0.68*	O=C(NCc1ccccc1)C1CCN(c2nc(-c3ccccc3)nc3c2CCC3)CC1
i	1.2	COc1ccc(CCN=C2SCC(=O)N2C)cc1OC
i	1.2	COC(=O)CC1=C(C(=O)OC)C(c2ccc3c(c2)OCO3)C(C#N)=C(N)O1 (stereo not given)
i	-1.8	CSc1nc(O)c(C(c2ccc(C)cc2)c2c(O)nc(SC)[nH]c2=O)c(=O)[nH]1
i	1.1	C=CCSC1=C(C#N)C(c2ccccc2OC)CC(=O)N1 (stereo not given)

# Some of the compounds tested, so the mix of outcomes need not match the whole.
